Bioassay records as filed in PubChem BioAssay.
HIV Env fusion – HIV envelope-mediated fusion inhibition; HeLa-JRFL Env/CEM21 cell fusion, luciferase; inhibition, % at 12.3 µM; 360,000 tested, 1.1% active; AID 651610;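 active = mean replicate inhibition score of at least 50 and every replicate individually at or above 50; inconclusive = only one of the two criteria met; inactive = mean below 50 and not all replicates reaching 50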;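 also: 0% = plate neutral controls and 100% = maraviroc near 300 nM; one replicate is shown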
Yeast UUG start – alters start codon recognition fidelity in yeast | S. cerevisiae UUG-firefly luciferase reporter, luminescence/redox ratio | activity score, % at 18.7 µM | 350,000 tested, 0.13% active;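 active = replicate mean at a twofold rise or more, about +100% in these data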;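 also: firefly luciferase made from a UUG start codon reports start codon fidelity; reporter light over untreated wells divided by growth signal over untreated wells; some hits fall short of that in this replicate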
eIF4H inh – inhibitors of RNA binding by human eIF4H. eIF4H fluorescence polarization binding assay. inhibition, % at 35 µM. 290,000 tested, 0.94% active. AID 2012;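 active = 50% or more with normal probe brightness, or confirmed in later tests; inconclusive = above 50% with abnormal brightness, or retests that disagree; inactive = below 50% or failed in later tests; about a fifth of its hits are not listed in these tables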;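 also: calls also rest on retests at 20 µM and on dose response follow-up; 0% = protein and probe with vehicle and 100% = probe without protein; strong numbers were not always called active; many hits fall short of the cut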
CSC inhib – blocks cancer stem cells; cancer stem cell-like cells viability, luminescence; AID 2717; 300,000 tested, 1.1% active; inhibition, % at 7.5 µM;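 active = mean at 75% or more and at least half the replicates too; inconclusive = mean and replicates disagree; tested in HMLE shEcad cells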;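 also: 0% = median of negative and 100% = median of positive control wells; the first replicate is given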
MT1-MMP act inh – inhibitors of human MT1-MMP activation. P50281. HT1080 RFP-PRO-GFP cells, GFP/RFP ratio fluorescence, overnight; percent of plate control window, DMSO zero. GFP/RFP ratio change, % at 20 µM. 360,000 tested, 0.061% active;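 active = GFP/RFP ratio change of at least 30% with cell ATP level not reduced by more than half and red fluorescence within 50% of control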; also: strong numbers were not always called active
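Assay system – RFP-PRO-GFP reporter HT1080 cells · Compound dosing – single dose of 20 µM compound, 1% DMSO final · Incubation – overnight compound exposure at 37 °C · Measure – GFP/RFP fluorescence ratio · Benchmarks – DMSO wells and RFP-L50D-GFP cells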
Rce1 inhib – inhibitors of yeast Ras-converting enzyme; Q03530; yeast membranes, quenched prenylated peptide cleavage fluorescence; calls only; 290,000 tested, 0.27% active;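 active = fall in fluorescence gain of 50% or more versus controls, with final raw signal at or below 3038400; inconclusive = same 50% fall but final raw signal above 3038400; inactive = fall in fluorescence gain under 50%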;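 also: plate controls were neutral control wells for no effect and wells lacking membranes for full effect; tested at 10 µM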
PABP polyA inh – PABP-poly(A) binding inhibition. inhibition, % at 35 µM. PABP-poly(A) RNA binding, fluorescence polarization. 290,000 tested, 1% active. P11940;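 active = 50% or more with normal probe brightness, or confirmed in later tests; inconclusive = above 50% with abnormal brightness, or retests that disagree; inactive = below 50% or failed in later tests; about a fifth of its hits are not listed in these tables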;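 also: calls also rest on retests at 20 µM and on dose response follow-up; controls were probe without protein and protein plus probe with vehicle; some compounds called inactive have numbers as strong as hits; many hits fall short of the cut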
Target sequence (P11940 whole entry, looked up): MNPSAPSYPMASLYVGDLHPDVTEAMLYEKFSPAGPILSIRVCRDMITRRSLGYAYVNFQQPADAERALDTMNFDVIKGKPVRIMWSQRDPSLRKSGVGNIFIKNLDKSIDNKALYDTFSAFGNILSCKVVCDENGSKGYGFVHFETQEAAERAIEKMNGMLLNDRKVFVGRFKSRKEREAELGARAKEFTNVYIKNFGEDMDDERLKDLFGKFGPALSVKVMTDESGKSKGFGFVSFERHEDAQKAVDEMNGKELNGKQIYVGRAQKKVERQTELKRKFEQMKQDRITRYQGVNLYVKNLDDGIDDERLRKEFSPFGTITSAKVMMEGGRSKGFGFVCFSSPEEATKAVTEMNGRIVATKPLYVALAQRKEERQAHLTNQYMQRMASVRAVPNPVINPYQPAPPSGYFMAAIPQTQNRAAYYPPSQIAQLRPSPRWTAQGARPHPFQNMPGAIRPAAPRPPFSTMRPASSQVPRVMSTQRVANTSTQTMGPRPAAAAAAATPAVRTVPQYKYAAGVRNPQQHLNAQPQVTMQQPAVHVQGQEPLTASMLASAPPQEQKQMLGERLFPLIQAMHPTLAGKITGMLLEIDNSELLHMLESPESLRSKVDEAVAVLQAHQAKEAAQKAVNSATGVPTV
eIF4H inh retest – second read-out of eIF4H inh, no call of its own (marks repeat the call); inhibition, %; compound at 20 µM; confirmation average;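 mean of two retest wells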
PABP polyA inh retest – second read-out of PABP polyA inh, no call of its own (marks repeat the call); inhibition, %; compound at 20 µM; confirmation repeats;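 mean of two retest wells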
MT1-MMP act inh RFP – further read-out of MT1-MMP act inh, marked with its call; RFP signal change, %; measured here: RFP expression control read;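 0 = vehicle wells; hits needed this value within 50% of zero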
Starred values were filed as active, the others as inactive; i = inactive; ? = inconclusive; . = not tested or not shown; & = joins results of further samples.

SMILES	HIV Env fusion	Yeast UUG start	eIF4H inh	CSC inhib	MT1-MMP act inh	MT1-MMP act inh RFP	Rce1 inhib	PABP polyA inh	others
CCOc1ccc(CN(C)CC(=O)NCc2ccc(F)cc2)cc1	12	-11	-13	1	1	-2	i	2
COc1cc(C(=O)NCCCN(C)C)ccc1OCC(=O)Nc1cccc(C(F)(F)F)c1	7	.	-8	4	3	0	i	-6
O=C(CSc1ccc2nnc(CCNC(=O)c3ccccc3)n2n1)NCc1ccc(F)cc1	7	-14	-3	.	4	4	i	3
CCC(Cc1ccccc1)NC(=O)C1CC1 (configuration not stated)	9	-23	1	-1	-2	0	i	1
CC(C)(C)c1ccc(C(=O)NCCNC(=O)c2ccco2)cc1	-14	2	-7	-12	2	3	i	-1
Cc1ccc(NC(=O)Nc2ccc(Cl)cn2)cc1	-43	.	0	.	0	0	i	?
CCN(/C(N)=N/c1nc(C)cc(C)n1)c1ccccc1	-17	-9	4	-10	-1	2	.	1
CCC1CCCCN1C(=O)c1cc(S(=O)(=O)N2CCOCC2)ccc1C (configuration not stated)	-1	.	.	1	-2	10	.	.
CC(Nc1nc(-c2ccccc2)nc2ccccc12)c1ccccc1 (configuration not stated)	13	-10	-8	?	-9	-7	i	71	eIF4H inh retest=2;PABP polyA inh retest=14
CCOc1ccccc1CN1CCNC(=O)C1CC(=O)NC1CCCCCC1 (configuration not stated)	11	1	-5	16	.	.	i	-2
c1ccc(OCc2noc(CN3CC[C@@H]4CCCC[C@H]4C3)n2)cc1	-1	13	-14	48	.	.	i	1
CCC(N=c1cc(-c2ccc(OC)cc2)oc2ccc(C)cc12)C(=O)O (configuration not stated)	-250	.	-5	2	3	6	i	-9
O=C(C[C@H]1C/C=C\CC[C@@H](Cc2ccc(F)cc2)C(=O)OCCNC1=O)NCCO	20	-2	.	.	-4	2	.	.
CC(C)c1ccccc1NC(=O)COC(=O)c1cc(=O)[nH]c(=O)[nH]1	-14	.	-14	-9	1	3	i	3
COc1ccccc1NS(=O)(=O)c1cccc(C(=O)NCC2(N(C)C)CCCCC2)c1	-11	2	.	-5	3	5	i	.
Cc1ccc2oc(=O)c3cnn(CC(=O)N(CCN(C)C)Cc4ccco4)c3c2c1	-42	-15	2	-7	-3	5	i	2
O=C(CCc1ccccc1)Nc1cc2c(cc1C(=O)O)OCCCO2	11	.	.	-10	2	5	.	.
O=C(Nc1nnc(CCN2CCCCC2)s1)c1ccc(Br)cc1	-11	6	-11	20	0	-1	i	3
COc1ccc(NC(=O)C2CCCN(S(=O)(=O)c3cccc4cccnc34)C2)cc1 (configuration not stated)	-6	-15	1	-13	9	0	i	0
CC(=O)NCCn1c(SCc2ccccc2F)nc2ccccc2c1=O	15	-1	-1	2	0	1	i	-1
Cc1ccc(-n2nnnc2-c2cnn(-c3ccc(F)cc3)c2C(F)(F)F)cc1	96*	-15	-4	9	0	-12	.	3
Cc1ccc(OC(=S)Nc2ccc(O)cc2)cc1	.	.	67	.	12	16	.	9	eIF4H inh retest=47;PABP polyA inh retest=6
Cn1cccc1Cc1nnc(SCC(=O)Nc2ccc3c(c2)OCCO3)n1CCc1ccccc1	8	-14	-4	-9	0	-5	i	-10
O=C1c2ccccc2C(=O)N1CSc1nnnn1-c1ccccc1	-41	-16	-2	-10	-1	1	i	-2
NC(=O)CCCCC(=O)OCCCc1cccs1	-16	-2	-8	-7	3	4	i	9
Cc1[nH]c(=O)[nH]c(=O)c1NC(=O)c1sc2nc3c(C)cccc3cc2c1N	2	.	2	-8	-15	2	i	-3
CCOc1cc(CNCc2ccncc2)cc(Cl)c1OC	4	.	-4	-6	6	3	i	-2
Cc1ccc(C(=O)OCn2nnc3ccccc3c2=O)cc1[N+](=O)[O-]	2	-13	21	-10	-2	0	i	-2
CC12CCCCC1c1ccccc1C(=NCC(=O)O)N2 (configuration not stated)	-33	-13	-3	-1	1	2	i	10
Cc1nc2ccc(NC(=O)COc3ccccc3[N+](=O)[O-])cc2s1	-4	.	4	.	4	4	i	-8
O=C(c1ccc(Cl)c(S(=O)(=O)N2CCCCCC2)c1)N1CCCCC1	-3	10	-5	7	-2	1	i	6
COc1ccc(C(=O)N(CC(=O)Nc2sc(C)c(C)c2C(N)=O)C2CCCC2)cc1	4	3	6	3	3	0	i	10
COC(=O)CCC(=O)N(CCN(C(=O)CCC(=O)OC)c1ccccc1)c1ccccc1	-7	.	0	-7	1	3	i	24
N#CCSc1ncccc1-c1nc2ccccc2[nH]1	.	-26	-11	-12	-6	-2	i	-1
Brc1cccc(OCCCN2CCCCCC2)c1	4	.	8	27	2	4	i	-3
CCNC(=O)NC(=O)COC(=O)CCCc1nc2ccccc2s1	5	.	2	-13	-1	2	i	10
CCN(CC(=O)NC(=O)Nc1ccccc1F)Cc1ccccc1	4	.	.	-2	-2	1	i	.
CC(C)Sc1nc(N)nc(-c2cccs2)c1C#N	.	.	-1	-6	-6	-6	i	-9
COC(=O)Cn1c(CN2CCC(Cc3ccccc3)CC2)nc2c1c(=O)n(C)c(=O)n2C	.	-22	4	-16	0	0	i	-2
O=C(NCCNS(=O)(=O)c1ccc(Cl)cc1)c1cc(OCC(F)(F)F)ccc1OCC(F)(F)F	125*	-9	2	.	5	3	i	6
CCOC(=O)CSc1nnc(CNC(=O)c2cccs2)n1-c1cccc(C)c1	-31	0	3	5	4	6	.	8
COc1ccc(C2c3[nH]c4ccccc4c3CCN2C(=O)Cc2nonc2C)c(F)c1 (configuration not stated)	-14	.	-3	30	-9	-9	i	3
CN(C)S(=O)(=O)c1ccc(C(=O)OCCN=C2NS(=O)(=O)c3ccccc32)cc1	.	6	10	2	-4	1	i	-9
CC(=O)Nc1ccc(OCC(O)Cn2c(C(C)C)nc3ccccc32)cc1 (configuration not stated)	-12	.	-4	10	3	-3	i	-12
CC1Cc2cc(S(=O)(=O)CCC(=O)NC3CCCCC3)ccc2N1C(=O)C1CC1 (configuration not stated)	-5	-27	-13	-6	2	2	i	5

Two records drawn at random from the list so far, as already listed:
SMILES	HIV Env fusion	Yeast UUG start	eIF4H inh	CSC inhib	MT1-MMP act inh	MT1-MMP act inh RFP	Rce1 inhib	PABP polyA inh	others
CCC1CCCCN1C(=O)c1cc(S(=O)(=O)N2CCOCC2)ccc1C (configuration not stated)	-1	.	.	1	-2	10	.	.
CC1Cc2cc(S(=O)(=O)CCC(=O)NC3CCCCC3)ccc2N1C(=O)C1CC1 (configuration not stated)	-5	-27	-13	-6	2	2	i	5

Next section.
SMILES	HIV Env fusion	Yeast UUG start	eIF4H inh	CSC inhib	MT1-MMP act inh	MT1-MMP act inh RFP	Rce1 inhib	PABP polyA inh	others
Cc1ccc(NC(=O)COc2ccc(N(C)S(=O)(=O)c3ccc(F)cc3)cc2)cc1	?	-11	.	11	5	-11	.	.
Cc1ccc(NC(=O)CN2C(=O)S/C(=C\c3cc(C)n(-c4ccc(C(=O)O)cc4)c3C)C2=O)cc1	13	-13	31	9	-12	-8	i	21
Cc1nc2ccc(NC(=O)c3cnc(Cl)c(Cl)c3)cc2s1	-2	.	4	5	0	1	i	10
CS(=O)(=O)c1ccc(C(=O)N(Cc2ccccc2)c2ccccc2)cc1	-4	4	-5	-11	-1	1	i	2
Nc1cc(=O)[nH]c(SCC(=O)Nc2nc3ccc([N+](=O)[O-])cc3s2)n1	.	.	1	-7	.	.	i	8
CC1(C)CC(CCNC(=O)c2ccc(-n3cnnn3)cc2)CC(C)(C)N1	.	0	4	2	-3	-2	i	8
CC(NC(=O)NC(=O)c1ccc(Cl)cc1Cl)C1CC1 (configuration not stated)	-26	.	-3	-4	5	0	i	-4
CC1CCCCN1C(=O)Cn1cnc2c1c(=O)n(C)c(=O)n2C (configuration not stated)	10	.	-4	-12	2	0	.	-7
CCn1cc(CNC(=O)c2ccc(OC3CCN(Cc4ccccn4)CC3)cc2)cn1	3	-15	-4	-1	3	-13	i	3
CCN(CC)C(=O)/C(=C/c1cccc([N+](=O)[O-])c1)NC(=O)c1ccco1	0	-6	0	-5	-4	-2	i	-2
COc1ccc([C@H]2CN(c3ccc(OC)cc3)C(=O)[C@@H]2CC(=O)Nc2ccccc2)cc1	-44	0	.	.	4	3	.	.
COc1c(C(=O)NCCSC(C)(C)C)ccc2ccccc12	?	.	-2	-7	-3	-1	i	0
O=C(O)Cn1cc2c(n1)CCCC2	.	13	1	-5	0	2	i	-1
Cc1ccc(NC(=O)C2CCCN2C(=O)Oc2ccccc2)cc1C (configuration not stated)	-10	-23	-4	-2	-1	0	.	-6
O=C(CSc1nnc(COc2ccc(Cl)cc2)o1)N1CCCC1	-3	-13	6	.	-2	1	i	-10
O=C1CC(N2CCC(c3nc4ccccc4[nH]3)CC2)C(=O)N1c1cccc(F)c1 (configuration not stated)	8	.	-2	-1	14	5	i	-10
C[C@H]1CN([C@@H](C)CO)S(=O)(=O)c2ccc(Br)cc2O[C@@H]1CN(C)S(=O)(=O)c1ccccc1	4	19&6&6	.	.	1	1	.	.
CCOC(=O)c1cccc(NC(=O)CCc2nnc3ccc(N4CCCCC4)nn23)c1	17	-35	6	-13	1	3	i	-4
O=C(CC1C(=O)NCCN1Cc1ccc(F)c(F)c1)NCCCn1ccnc1 (configuration not stated)	7	-13	4	3	-1	4	i	7
CCOc1ccc(C(=O)N2CCN(c3ccccc3)CC2)cc1	12	.	10	-5	-1	-2	i	2
COC(=O)c1cn(NC(=O)/C=C/c2cc(OC)ccc2OC)c(=O)c2ccccc12	19	-10	-6	-5	2	0	i	7
Fc1cccc(C2NN=C(c3ccccc3)S2)c1 (configuration not stated)	-105	267*	-6	8	-3	-1	i	-9
CCn1c(CNc2ccc(Cl)cc2)nnc1SCc1ccc(C)cc1	2	-9	0	6	-1	-9	i	-2
Cc1ccc(C(=O)N2CCN(c3ccc([N+](=O)[O-])cc3)CC2)o1	6	-16	-8	12	5	-6	i	-9
O=C(COc1ccc(/C=N/NS(=O)(=O)c2ccccc2)cc1)Nc1cccc(Cl)c1	.	-7	-4	.	1	0	i	0
COc1ccc([C@H]2C=C(C(=O)O)O[C@@H](OCc3ccc(CO)cc3)C2)cc1	-17	-9	2	12	0	0	i	2
COCCn1c(SCC(=O)c2ccccc2)nc2ccccc2c1=O	7	.	12	-2	0	-3	i	-13
Cc1nc(CSc2nc3[nH]ncc3c(=O)n2-c2ccccc2)cs1	.	-14	-8	.	-1	-4	i	-2
CC(=O)N1CCN(C(=O)c2ccc(S(=O)(=O)Nc3ccccc3Cl)cc2)CC1	.	-3	.	-12	3	0	i	.
CCCN(CCC)C(=O)c1c(NC(=O)CC)sc2c1CCCCC2	-33	-16	0	-7	-1	-4	i	3
COc1cc2oc(=O)cc(-c3ccc(-c4ccc(C)cc4)cc3)c2c(OC)c1OC	-44	-18	.	.	-5	-10	.	.
CN(C(=O)c1ccco1)c1nc(-c2ccc(Cl)cc2)cs1	-62	-20	14	-6	2	-3	.	-5
Cc1ccc(SCC(=O)NNC(=O)c2ccccc2)cc1C	-5	-3	-3	3	-2	2	i	19
O=C(N/N=C\c1cn[nH]c1-c1ccc(Cl)cc1)c1cccs1	50	-8	-2	-2	-4	-4	i	6
COc1ccc(CCNC(=O)Nc2cccs2)c(OC)c1	-10	11	-4	-8	1	-1	i	10
CCc1nc2ccc(C(=O)NCc3ccc4c(c3)OCO4)cn2c1N(CC)CCOC	4	-9	.	.	11	6	.	.
COc1ccc(COC(=O)c2cccc(S(=O)(=O)N3CCN(C(C)=O)CC3)c2)cc1F	-2	15	.	.	-8	-20	i	.
